# CtBP-E1A inh: qHTS Assay for Inhibitors of the CtBP/E1A Interaction. activity change, % (concentration not given with the values). CtBP / adenovirus E1A interaction (AlphaScreen). 340,000 tested, 0.49% active. AlphaScreen GST-E1A/His-CtBP binding, 1536-well; stronger effect = lower value; control for the full effect not named in the record; in the data active means activity change below about -65%; inconclusive means about -30% to -65%; inactive means above about -30%; further: on the % scale 0 is the no-effect control and ±100 the full control effect
#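 Protein mix (5X: 125 nM each GST-E1A, His-CtBP) was incubated with pinned compound 2 h at 37 deg C in dark, in 50 mM Tris pH 8.0 buffer with 300 mM NaCl. Glutathione donor and nickel acceptor beads followed; AlphaScreen signal read after 1 h.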
# Sfp inh: qHTS Assay for Inhibitors of Bacillus subtilis Sfp phosphopantetheinyl transferase (PPTase). Potency, µM, for inactives: max response, negative = inhibition, actives largely listed as inhibitors. Biochemical Sfp PPTase activity, qHTS. 310,000 tested, 3.5% active; active means well fitted inhibition curve with a large enough effect; inconclusive means small, poorly fitted or top-dose-only effect, or another doubt; inactive means no such curve, though single readings can be large or run the other way;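 further: the enzyme is Sfp with the accession as filed and its product quenches rhodamine fluorescence; potency means the concentration at half of the fitted maximal effect; 0% = enzyme reaction without inhibitor and -100% = no enzyme wells; top concentration of the series not given in the record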
#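 Compounds were incubated with enzyme (final 15 nM) for 15 min at room temperature before substrate addition started the reaction. Fluorescence at 525 nm excitation, 598 nm emission was recorded immediately and after 30 minutes.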
# Menin MLL FP FL: qHTS Assay for Inhibitors Targeting the Menin-MLL Interaction in MLL Related Leukemias: Competition With Fluorescein Labeled MLL-derived Peptide | 290,000 tested, under 10 active | AID 1766, 2009 | FP activity change, % at 61.4 µM | Fluorescence polarization, fluorescein-MLL peptide displacement from menin; inconclusive = falling polarisation curve, or a change in total fluorescence; inactive = total fluorescence flat and polarisation flat or rising; no compound was filed as active; the % refers to the polarisation; negative = inhibition;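 further: % of control where 0% means no effect; inhibitors lower the polarisation; unlabelled MLL peptide was the positive control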
# TRPV1 potentiator: HTS Assay for Compounds that Act as Potentiators of the Vanilloid Receptor 1; Transient receptor potential cation channel subfamily V member 1 (Homo sapiens), Q8NER1; TRPV1-expressing cells, Fluo-8 calcium influx, capsaicin EC20 potentiation; host cell line not named in the record; control for the full effect not named in the record; potentiation, % at 8.33 µM; 320,000 tested, 0.02% active; AID 540277, 2011; active means potentiation above 80%; inconclusive means 30% to 80%; inactive means below 30%; further: 0% is about no effect
# Target sequence (Q8NER1 whole entry, looked up): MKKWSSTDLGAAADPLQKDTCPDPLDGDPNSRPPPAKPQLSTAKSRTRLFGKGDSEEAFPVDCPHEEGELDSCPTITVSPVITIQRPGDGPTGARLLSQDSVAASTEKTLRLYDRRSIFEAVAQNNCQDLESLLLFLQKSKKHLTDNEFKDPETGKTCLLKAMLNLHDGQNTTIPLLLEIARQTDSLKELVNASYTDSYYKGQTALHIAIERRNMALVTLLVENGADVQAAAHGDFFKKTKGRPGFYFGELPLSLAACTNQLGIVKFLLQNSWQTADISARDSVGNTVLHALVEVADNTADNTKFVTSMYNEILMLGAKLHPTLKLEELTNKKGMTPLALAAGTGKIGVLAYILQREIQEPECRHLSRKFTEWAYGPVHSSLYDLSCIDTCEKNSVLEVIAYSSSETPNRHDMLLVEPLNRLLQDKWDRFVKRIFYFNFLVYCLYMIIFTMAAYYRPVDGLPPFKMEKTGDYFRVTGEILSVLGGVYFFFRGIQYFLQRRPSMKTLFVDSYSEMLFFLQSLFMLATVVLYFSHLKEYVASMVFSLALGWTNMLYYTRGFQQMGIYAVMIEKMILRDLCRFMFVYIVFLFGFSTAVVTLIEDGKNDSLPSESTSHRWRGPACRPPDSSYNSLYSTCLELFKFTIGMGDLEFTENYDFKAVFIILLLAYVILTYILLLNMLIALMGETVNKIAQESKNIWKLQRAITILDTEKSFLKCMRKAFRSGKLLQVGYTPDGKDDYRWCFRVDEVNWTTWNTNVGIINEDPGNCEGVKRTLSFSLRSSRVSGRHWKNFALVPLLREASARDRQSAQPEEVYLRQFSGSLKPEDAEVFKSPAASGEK
#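 TRPV1-expressing cells were cultured overnight at 35.5C and loaded with Fluo-8 calcium dye for 40 to 90 min at room temperature. After a 10 s baseline, compound was added and calcium influx was read kinetically for 3 min (ex 480/em 520 nm).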
# ClpP mod: qHTS Assay for Activators of ClpP | ATP-dependent Clp protease proteolytic subunit (Bacillus subtilis (strain 168)), P80244 | purified B. subtilis ClpP, FRET peptide cleavage, 20 min | Potency, µM (doses to about 57.5 µM), without a hit: top-dose activity change, negative = active | 340,000 tested, 1.9% active; active = well fitted falling curve with a large enough effect; inconclusive = small, poorly fitted or top-dose-only effect; inactive = no such curve, though single readings can be large or run the other way; further: potency means the concentration at half of the fitted maximal effect; the source files actives as falling curves though it sought activators and does not explain the sign; nearly all actives have a fitted effect of over 65% in size; many hits overshoot -100%
# Target sequence (P80244 whole entry, looked up): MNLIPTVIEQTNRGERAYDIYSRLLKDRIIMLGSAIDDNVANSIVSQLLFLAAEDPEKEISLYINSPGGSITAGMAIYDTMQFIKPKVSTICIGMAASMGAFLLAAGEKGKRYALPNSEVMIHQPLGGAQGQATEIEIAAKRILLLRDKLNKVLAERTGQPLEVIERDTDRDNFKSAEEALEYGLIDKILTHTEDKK
#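 Buffer: 100 mM Tris/HCl pH8, 100 mM KCl, 0.05% low protease BSA, 2.5% glycerol, 0.01% Tween-20. ClpP 10 microg/mL final; 20 min RT; delta FRET normalized to ADEP and DMSO controls.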
# gsp antag: qHTS for Antagonists of gsp, the Etiologic Mutation Responsible for Fibrous Dysplasia/McCune-Albright Syndrome: qHTS; gsp-mutant cells, cAMP HTRF, 30 min; control for the full effect not named in the record; Potency, µM (titrated, usually from 76.9 µM), inactives show at the highest dose activity change, negative = inhibition, actives largely listed as inhibitors; 340,000 tested, 0.4% active; active = falling curve of any shape with a large fitted effect; inconclusive = falling curve, mostly with a smaller effect; inactive = flat or rising curve; cell line not stated here;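 further: intracellular cAMP measured with PDE inhibitor Ro 20-1724 present during compound exposure; potency means the concentration at half of the fitted maximal effect; on the % scale 0 is the no-effect control and ±100 the full control effect; nearly all actives have a fitted effect of over 65% in size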
#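 Cells, 2000/well, grown 16–24 h in DMEM 10% FBS with 0.5 mg/ml G418, then compounds plus […] (300 uM addition stock), 30 min at 37C. cAMP read by HTRF (cAMP-d2 and anti-cAMP antibody-K in lysis buffer) after 30 min RT.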
# gsp agonist: qHTS for Agonist of gsp, the Etiologic Mutation Responsible for Fibrous Dysplasia/McCune-Albright Syndrome: qHTS; Potency, µM (highest dose often 76.9 µM), for inactives: top-dose activation (cAMP increase), most hits filed as activators; 340,000 tested, 0.13% active; gsp mutant cells, cAMP HTRF, 30 min; control for the full effect not named in the record; active = well fitted activation curve with a large enough effect; inconclusive = small, poorly fitted or top-dose-only effect, or another doubt; inactive = no such curve, though single readings can be large or run the other way; cell line not stated here;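 further: phosphodiesterase inhibitor Ro 20-1724 added with compounds to block cAMP breakdown; potency means the concentration at half of the fitted maximal effect; nearly all actives have a fitted effect of over 60% in size; about a fifth of the inactives were tested at one dose only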
#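 Cells stably selected in G418 were plated at 2000/well, grown 16-24 hr, then given compounds in DMSO with the PDE inhibitor […] (300 uM solution added) for 30 min at 37C; cAMP was read by HTRF.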
# An asterisk follows results filed as active; ? = inconclusive; . = no result given; & = joins results of further samples; [ ] = remark or other dose. Random draw from the library; 5.3% or so of the library scored in one or more.
# Sequence of screens – Sfp inh	ClpP mod	gsp agonist	TRPV1 potentiator	gsp antag	Menin MLL FP FL	CtBP-E1A inh
> O=C(C1CC1)N1CCC(c2nc(-c3ccc(S(=O)(=O)NCC4CCCO4)cc3)no2)CC1 (stereo not drawn)
  3%	0.9%	-25%	-5	-20%	3.7	6
> COc1ccc(S(=O)(=O)N2CCC(N3CCCCC3)CC2)cc1
  ?	1.0%	25%	-11	0%	2.6	0
> S=C(NC1CCCCC1)N1CCn2cccc2C1c1ccncc1 (stereo not drawn)
  13%	.	8%[15.4 µM]	1	-10%	-2.7	-15
> [N-]=C=C1C(=O)NC(=O)C([n+]2ccc(-c3ccncc3)cc2)C1c1ccccc1C(F)(F)F (stereo not drawn)
  50µM*	.	-3%[15.4 µM]	21	1%	-0.6	3
> CSCCC(=O)Nc1ccc(C(C)=O)cc1
  18%	-0.8%	-37%[inhibitor]	11	6%	-0.2	4
> O=C(CSc1nc(=O)n(CCN2CCOCC2)c2c1CCCC2)Nc1ccccc1Cl
  .	2.7%	-28%	.	.	.	0
> CC(=O)Nc1ccc(S(=O)(=O)NNC(=O)C(=O)NNc2ccccn2)cc1
  28%	1.0%	4%	0	15%	-1.2	.
> COC(=O)/C(=N/Nc1ccccc1C)N1CCCc2ccccc21
  -17%	-2.8%	-2%	4	-4%	-0.6	-12
> CCCN(CCC)C(=S)Nc1cc(C(=O)OC)ccc1C(=O)OC
  11%	-19%	2%[15.4 µM]	-14	-10%	5.2	-3
> Cc1ccc2cc3c(=O)n(C)cc(C=O)c3nc2c1
  .	-28%	8%	.	1%	.	0
> COc1ccccc1C(=O)NC(=O)COC(=O)c1ncc(Cl)c(Cl)c1Cl
  .	-0.4%	-9%	15	-28%	.	0
> O=C(O)c1ccc(Cl)cc1NC(=O)C1CCN(S(=O)(=O)c2cccs2)CC1
  .	-14%	-24%	.	.	.	2
> COc1ccc(OC)c(C2/C(=C(/O)c3cnn(-c4ccccc4)c3C)C(=O)C(=O)N2CCN(C)C)c1 (stereo not drawn)
  0%	.	-9%[15.4 µM]	7	17%	1.8	-2
> Cc1noc(C)c1S(=O)(=O)N1CCC(C(=O)Nc2ccc(Br)cc2)CC1
  12%	-1.7%&3.8%	27%	-12	-6%	8.4	9
> CC(C)(C)NC(=O)C[C@H]1C[C@H](C(=O)N2CCCCC2)[C@@]2(CCc3ccccc3)c3[nH]c4ccc(Cl)cc4c3CCN2C1=O
  .	-0.7%	.	.	-5%	.	3
> CCOC(=O)C1(Cc2ccccc2)CCN(C2Cc3ccccc3C2)CC1
  9%	.	4%	-8	2%	4.2	1
> Cc1[nH]c2ccccc2c1C(=O)C(=O)N1CCN(c2cccc(Cl)c2)CC1
  15%	-1.5%	2%	21	?	.	.
> O=C(NNC(=O)C12CC3CC(CC(C3)C1)C2)c1ccncc1
  -7%	.	-13%	22	6%	-23	7
> O=[N+]([O-])c1cccc(/C=N\N=C2c3ccccc3-c3ccccc32)c1O
  -24%	0.7%	-10%	1	-7%	1.9	3
> CC(=O)SCC(C)C(=O)NCc1ccccc1 (stereo not drawn)
  8%	-0.8%	7%	0	5%	2.8	10
> CCN(CC)C(=O)c1sc(NC(=O)c2ccc(C)c([N+](=O)[O-])c2)c(C#N)c1C
  -12%	-6.2%	-14%	-9	-13%	1.8	-1
> CCOC(=O)c1cc(-c2cccc([N+](=O)[O-])c2)n[nH]1
  12%	.	-13%[15.4 µM]	4	2%	-2.5	6
> Cn1ncc(Cl)c1C(=O)NCc1ccco1
  14%	.	?	3	11%	2.1	4
> O=C(O)c1ccc(N=Cc2c(O)ccc3oc4c(c23)CCCC4)cc1
  -16%	0.9%	0%	11	-1%	5.2	4
> COc1cccc(Oc2ccc(C(F)(F)F)cc2NC(=O)c2cccc(F)c2)c1
  -13%	?	28%	10	-7%	6.5	0
> O=C(COC(=O)c1ccc(S(=O)(=O)N2CCCC2)cc1)Nc1ccc(Cl)cc1
  .	0.3%	16%	3	6%	.	0
> Cc1nnc2sc(SCC(=O)Nc3ccc(Br)cc3)nn2c1=O
  15%	25µM*	1%[15.4 µM]	3	13%	4.2	15
> Cc1ccc(C2CC(=O)Oc3cc(C)cc(C)c32)cc1 (stereo not drawn)
  .	1.7%	.	.	-12%	.	9
> NC(=O)C1CC(=O)N(c2ccc(OCc3ccc([N+](=O)[O-])cc3)cc2)C1 (stereo not drawn)
  5%	-1.7%	-18%[15.4 µM]	?	-4%	-0.6	-3
> CCn1nnnc1SCC(=O)c1ccc(C)cc1C
  -2%	-0.8%	-1%	-7	-5%	0.8	7

# Already shown: an excerpt of the list.
# Sequence of screens – Sfp inh	ClpP mod	gsp agonist	TRPV1 potentiator	gsp antag	Menin MLL FP FL	CtBP-E1A inh
> O=C(O)c1ccc(Cl)cc1NC(=O)C1CCN(S(=O)(=O)c2cccs2)CC1
  .	-14%	-24%	.	.	.	2
> COc1ccc(OC)c(C2/C(=C(/O)c3cnn(-c4ccccc4)c3C)C(=O)C(=O)N2CCN(C)C)c1 (stereo not drawn)
  0%	.	-9%[15.4 µM]	7	17%	1.8	-2

# (list continues)
# Sequence of screens – Sfp inh	ClpP mod	gsp agonist	TRPV1 potentiator	gsp antag	Menin MLL FP FL	CtBP-E1A inh
> CCc1cc2c(N[C@@H](Cc3ccccc3)C(=O)O)ncnc2s1
  14%	-1.6%	29%[15.4 µM]	3	4%	0.1	2
> OCCN1CCN(C(=S)Nc2ccc(SC(F)F)cc2)CC1
  2%	0.4%	-4%[15.4 µM]	-12	15%	-0.2	8
> N#Cc1ccc(Oc2cccc3cccnc23)c([N+](=O)[O-])c1
  4%	.	1%	21	4%	?	-27
> N=c1c(S(=O)(=O)c2ccc(Cl)cc2)cc2c(=O)n3ccccc3nc2n1CC1CCCO1 (stereo not drawn)
  -1%	?	0%	3	1%	.	.
> COc1cccc(/C(=N/O)C2CC2c2ccc(Cl)cc2)c1 (stereo not drawn)
  15%	.	15%[15.4 µM]	24	.	-1.3	0
> Cn1c(=O)c2c(nc(CO)n2C)n(C)c1=O
  13%	.	-8%	-4	3%	-0.7	-23
> Cc1cccc(Oc2ccccc2NC(=O)CSCC(=O)Nc2cc(C)on2)c1
  .	-2.0%	-4%	-4	-5%	.	3
> Cc1cccc(C)c1N(CC(=O)NN=C1CCCCCC1)S(C)(=O)=O
  -16%	0.1%	-18%	7	-2%	-4.2	-1
> Cn1nc2c3cc(F)ccc3n(Cc3ccc(F)cc3)cc-2c1=O
  9%	.	1%	22	0%	1.1	-2
> CCOC(=O)n1ccc(C(=O)Nc2ccccc2F)n1
  19%	-0.5%	20%	6	5%	-0.4	-1
> O=C(c1cccc(OCc2ccccc2)c1)N1CCOCC1
  5%	1.8%	?	-8	6%	-2.6	2
> CCC1CCCCN1C(=O)CCn1c(=O)oc2ccccc21 (stereo not drawn)
  .	1.6%	-2%	.	5%	.	4
> O=C(NC(Cc1ccccc1)C(=O)N1CCN(c2ccc(F)cc2)CC1)c1ccccc1 (stereo not drawn)
  .	-1.6%	33%	.	.	.	1
> COC(=O)C1C(OC)=CC(=O)C2CCCCC21 (stereo not drawn)
  .	0.7%	-21%	.	12%	.	9
> COc1ccc(CC(=O)NCC(=O)N/N=C/c2ccco2)cc1
  15%	0.5%	3%	-8	0%	-0.1	6
> COc1ccnc(Oc2cccc(C(F)(F)F)c2)c1C(=O)N/C=N/OCc1ccccc1F
  14%	.	1%[15.4 µM]	-2	-17%	0.2	1
> Cn1c(=O)[nH]c(=O)c2c1nc(N1CCCCCC1)n2CC(N)=O
  16%	-1.1%	?	13	-1%	4.7	1
> CCSc1nc2sccc2c(=O)n1-c1ccccc1
  -10%	.	12%	-35	-6%	-3.5	4
> S=C(NCCC(c1ccccc1)c1ccccc1)Nc1ccccc1Cl
  21%	0.4%	0%	-8	-7%	0.3	-1
> COc1cccc(NC(=O)CN(C)C(=O)C2=COCCO2)c1
  .	-11%	?	9	11%	.	-19
> Cc1ccc(S(=O)(=O)N(C)CC(=O)O/N=C(\N)c2cccnc2)cc1
  .	0.6%	17%	.	5%	.	9
> c1ccc(CN=C2NN=C(c3ccccc3)CS2)cc1
  -2%	-4.4%	-4%[15.4 µM]	-14	-8%	2.7	-28
> CCN(CC)CCCN(Cc1cc2cc3c(cc2[nH]c1=O)OCCO3)C(=O)Nc1ccc(F)cc1
  10%	28µM*	-38%[inhibitor]	-4	-3%	-2.7	-4
> CN(C)c1ccc(CNC(=O)C2CCC(CNc3c(N4CCCCC4)c(=O)c3=O)CC2)cc1 (stereo not drawn)
  5%	.	6%[15.4 µM]	1	0%	2.8	7
> COc1ccc(C2CC(=O)C3=C(C2)Nc2ncnn2C3c2ccccc2C)cc1 (stereo not drawn)
  12%	-12%	8%	-8	?	3.3	10
> CC(=O)Nc1ccc(N(CC(=O)NC2CCCCC2)C(=O)Cn2nnc(-c3ccccc3)n2)cc1
  21%	.	6%	24	-2%	0.1	4
> CCCCOC(=O)Oc1ccc2c(=O)c(Oc3cccc(C)c3)coc2c1
  ?	-2.5%	-11%	-4	-9%	0.2	-13
> CC(C)CCN(C(=O)c1csnn1)C(C(=O)NC1CCCCC1)c1ccc(F)cc1 (stereo not drawn)
  7%	-0.6%	8%[15.4 µM]	-14	0%	.	5
> C=CCC(NCc1ccco1)c1ccc(OC)cc1OC (stereo not drawn)
  14%	.	.	7	.	0.9	.
> CC(=O)c1cn(CCOc2cc(C)ccc2C)c2ccccc12
  11%	.	-9%	16	-14%	2.3	6
> CCOC(=O)c1ccc(N2C(=O)C(CC(N)=O)N(NC(=O)c3cccc(F)c3)C2=S)cc1 (stereo not drawn)
  17%	-2.4%	4%	-14	7%	-0.4	.
